Anaer choline gr: inhibitors of anaerobic choline-dependent gram-negative bacterial growth; AID 1963822; calls only; Gram-negative bacterium anaerobic choline minimal medium, absorbance growth; hits give low values; many inactives read as strong as hits in the columns shown; 55,000 tested, 0.2% active;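 active means growth z-score on choline under -2 at 7 or 20 h with little or no fall on glycerol, limits in tiers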;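 further: stock transfer was 300 nL into about 50 µL; the organism is E. coli; final concentration not given here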
Anaer choline gr early: further read-out of Anaer choline gr, marked with its call; z-score; measured here: choline growth z-score, timepoint 1;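 score of optical density at 7 h as mean of two plates; lower means less growth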
* marks the source's active call; other numbers are inactive results; i = inactive; & = joins results of further samples. Not all compounds are listed (hit frequency here may not be typical).

SMILES	Anaer choline gr	Anaer choline gr early
CCN1CCN(S(=O)(=O)c2cc(-c3nnc(C4CCC4)o3)co2)CC1	i	0.33
COc1ccc(-c2csc(C)n2)cc1S(=O)(=O)Nc1ccc(S(N)(=O)=O)cc1	i	1.7
COc1ccc(N2CCn3c(nc4ccccc43)C2)cc1NS(C)(=O)=O	i	-0.76
Cc1nc(CC(=O)NCc2ccc3c(c2)OCO3)cs1	i	-0.05
CC(C)NC(=O)CSc1nc2cc(-c3ccccc3)[nH]c2c(=O)n1Cc1ccccc1	i	0.4
CN(CCCNC(=O)C1CCCN(c2nc3cccnc3s2)C1)C1CCCCC1 (stereo unspecified)	i	0.42
CCOC(=O)Cn1c(=O)c2c(nc3n2CC(C)CN3c2ccc(OCC)cc2)n(C)c1=O (stereo unspecified)	i	-1.6
C=Cc1ccc(CSc2nc3c(c(=O)[nH]2)CN(Cc2ccc(OC)cc2)CC3)cc1	i	0.06
Brc1ccc(-c2noc(Cc3nc(-c4ccccc4)cs3)n2)cc1	i	0.2
Cn1c(=O)c2c(-c3ccc(Br)cc3)c(Nc3ccccc3)oc2n(C)c1=O	i	1.8
COc1ccc(S(=O)(=O)Cc2nc(-c3ccccc3)no2)cc1OC	i	0.19
COC(=O)c1sccc1NC(=O)CSc1nccn2nc(-c3ccc(OC)cc3)cc12	i	0.21
CCc1nc(-c2ccc(C(=O)NCC(=O)NC3CCC(C)CC3)cc2)no1 (stereo unspecified)	i	0.04
O=C(Nc1nnc(SCC(=O)N2CCc3ccccc32)s1)NC1CCCCC1	i	1
COc1ccc(-c2cc(OCC(=O)Nc3ccc(C)c(C)c3)c3ccccc3n2)cc1	i	0.55
CC(C)c1ccc(-c2cc3c4nn(CC(=O)N(C)c5ccc(F)cc5)c(=O)n4ccn3n2)cc1	i	-0.37
CC(C)(C)S(=O)(=O)c1ccc(N2CCN(c3ncccn3)CC2)nn1	i	-0.22
O=C(c1ccc2c(c1)OCO2)N1CCC(O)(C2CCN3Cc4ccccc4N=C23)CC1 (stereo unspecified)	i	-1.9
CCOC(=O)N1CCC(NC(=O)c2cnc(OC)nc2)CC1	i	-1.9
Cc1cc(C2CCCN2C(=O)c2cc(-c3ccccc3Cl)on2)on1 (stereo unspecified)	i	-1.1
CC(=O)NCc1csc(C2CCN(C(=O)C3CCC3)CC2)n1	i	-0.32
CCCN1CC(CSC)C[C@@H]2c3cccc4[nH]cc(c34)C[C@H]21 (stereo partly specified)	i	0.27
COc1ccc(Nc2nn(-c3ccccc3)c3c2C(=O)CCC3)cc1	i	0.63
CCC(=O)Nc1ccccc1-c1nnc(SC(CC)C(=O)Nc2ccccc2)[nH]c1=O (stereo unspecified)	i	-1.2
O=C1CC(=O)Nc2cc(S(=O)(=O)Nc3ccccc3Br)ccc2N1	i	0.49
(next part)
SMILES	Anaer choline gr	Anaer choline gr early
Cc1ccc(NC(=O)CN2C(=O)c3ccccc3S2(=O)=O)cc1C	i	0.46
CC1=Nc2ccccc2N=C(NC(=O)CN2CCN(c3ccccc3)CC2)C1c1ccccc1 (stereo unspecified)	i	-0.19
CCOc1ccccc1N(Cc1nc2nc(C)cc(=O)n2[nH]1)C(=O)C1CCCCC1	i	-0.13
CCCS(=O)(=O)c1ccc2c(c1)S(=O)(=O)N=CN2	i	0.16
CN(c1ccccc1)c1nc(N2CCOCC2)nc(-n2ccnc2)n1	i	1.1
CCOc1cc(C2c3c(-c4cc(C)ccc4O)n[nH]c3C(=O)N2CCOC)ccc1O (stereo unspecified)	i	-0.69
COc1ccc2[nH]cc(CCNC(=O)Nc3c(C)cccc3C)c2c1	i	0.68
O=C(Cc1csc2nc(-c3ccc(Cl)cc3)cn12)N1CCN(c2ccccc2)CC1	i	-0.14
CCOc1c(C(=O)OC)sc2ccc(NC(=O)CN3C(=O)COc4ccc(C(C)(C)C)cc43)cc12	i	-0.1
Cc1ccc(CNC2=NCCCNC23CCCCC3)cc1	i	-1.1
O=C(CN1CCCN(Cc2ccccc2F)S1(=O)=O)NCc1ccccc1Cl	i	1
Cc1ccc(NC(=O)CSc2nc(-c3ccccc3)no2)cc1	i	0.35
CCOc1ccc(CN2C(=O)c3ccccc3CC2(C)C(=O)NCc2ccc(OC)cc2)cc1 (stereo unspecified)	i	1.5
O=C(NCc1ccc(F)cc1)N1CCC(N2CCN(Cc3ccc(F)cc3)C(=O)C2=O)CC1	i	-1.1
COc1ccc(NC(=O)C2Cc3ccccc3CN2S(C)(=O)=O)cc1OC (stereo unspecified)	i	-0.08
CC1(C)OC2CO[C@@]3(COS(N)(=O)=O)OC(C)(C)OC3C2O1 (stereo partly specified)	i	0.45
C=Cc1ccc(Cn2nc3n(CC(C)C)c(=O)c4ccc(C(=O)NC(C)C)cc4n3c2=O)cc1	i	0.53
COc1ccc(COc2ccc(=O)n(-c3ccc(C(=O)Nc4ccc5c(c4)OCCO5)cc3)n2)cc1	i	-0.4
Fc1ccc(CNc2ccc(-c3nc(-c4ccc(F)cc4)no3)nn2)cc1	i	0.54
CC(C)CC(=O)NCCc1csc(-c2ccc(Cl)cc2)n1	i	0.66
Cc1ccccc1C(=O)Nc1ccc2c(c1)NC(=O)C(C)O2 (stereo unspecified)	i	0.73
CCOC(=O)C1CCN(C(=O)Cn2c(=O)oc3cc(S(=O)(=O)N4CCC(C)CC4)ccc32)CC1	i	1.3
O=C(Cn1nnnc1-c1ccccc1F)Nc1cccc2ncccc12	i	0.62
Cc1c(C(=O)O)nnn1-c1ccc(Cl)cc1	i	0.05
COc1cccc(Sc2nc3ccccc3n3c(=O)n(CC(=O)Nc4ccccc4OC)nc23)c1	i	0.19
More results
SMILES	Anaer choline gr	Anaer choline gr early
CCCCN1C(=O)C(C)(C(=O)N2CCN(C)CC2)Oc2cccnc21 (stereo unspecified)	i	1.1
O=C(NC1CCCC1)NC1CCCN(c2cc(N3CCCC3)ncn2)C1 (stereo unspecified)	i	0.49
CCOC(=O)c1cccc(NS(=O)(=O)c2c(C(=O)N3CCCC3)c(C)n(C)c2C)c1	i	-0.26
COc1ccc(-c2cc(N3CCN(C(=O)c4ccc(C(C)(C)C)cc4)CC3)ncn2)cc1	i	0.36
Cn1c(SCC(=O)Nc2ccc3c(c2)OCO3)nc2c(-c3ccccc3)csc2c1=O	i	0.52
Cc1ccc(Cn2nc3c(S(=O)(=O)N4CCN(c5ccc(F)cc5)CC4)cccn3c2=O)cc1	i	0.15
CC(C)c1ccc(-c2cc(-c3nc(-c4ccc5c(c4)OCO5)no3)[nH]n2)cc1	i	0.61
COc1ccc(-c2noc(CCC(=O)O)n2)cc1OC	i	0.18
Cc1ccc(C2=CC(c3ccc(F)cc3)n3nc(NS(=O)(=O)c4ccc(C)cc4)nc3N2)cc1 (stereo unspecified)	i	-0.34
COc1ccc(S(=O)(=O)N2CCc3nc(NC(=O)C4CCCCC4)sc3C2)cc1	i	-0.49
CN1CCN(c2cc(C(=O)O)c3cc(NS(=O)(=O)c4cc(F)ccc4F)ccc3n2)CC1	i	-0.33
O=C(CSc1nccn2nc(-c3ccccc3)cc12)NC1CCCC1	i	2
Cc1ccc(-c2cnc(N3CCCC(C(=O)NC4CCCCC4)C3)nc2)cc1 (stereo unspecified)	i	-0.75
CCc1c(C)sc2c1CCN(CC(=O)Nc1ccccc1F)C2c1ccccc1 (stereo unspecified)	i	-0.34
CCCNc1ncnc2oc(C)c(C(=O)OCC)c12	i	0.74
CC1(C(=O)NCc2ccc3c(c2)OCO3)CCN(C(=O)COc2ccc(F)cc2)CC1	i	-0.58
CCOC(=O)c1cc(-c2ccc(OC)c(S(=O)(=O)NC3CCN(Cc4ccccc4)CC3)c2)on1	i	0.37
CCNC(=O)CCC(=O)N1Cc2cccn2-c2ccccc21	i	-0.42
O=C(c1ccc2nc3ccc(Cl)cc3c(=O)n2c1)N1CCN(c2ccccc2)CC1	i	1.3
COc1ccccc1CN1CC(=O)N(c2ccc(C)c(C)c2)[C@@H]2CS(=O)(=O)C[C@@H]21	i	0.46
O=C(c1c(-c2ccccc2)nnc2ccccc12)N1CCN(Cc2ccc3c(c2)OCO3)CC1	i	-0.02
Cc1nnc(-c2c(C)[nH]c(C)c2S(=O)(=O)N2CCC(C)CC2)o1	i	0.22
O=c1cc(CN2CCOCC2)nc2nc(NCc3ccccc3)[nH]n12	i	-0.3
CCSc1nnc2c(n1)OC(/C(C)=C/c1ccccc1)Nc1ccccc1-2 (stereo unspecified)	i	-0.18
O=C(CCCc1nc(-c2ccncc2)no1)Nc1cccnc1	i	-1.7
The list continues.
SMILES	Anaer choline gr	Anaer choline gr early
CC1(C)CC(=O)C2=C(C1)NC(=O)CC2c1ccsc1 (stereo unspecified)	i	0.14
CCOC(=O)C1CCN(C(=O)CCc2nc3sc4c(c3c(=O)[nH]2)CCC(C(C)(C)C)C4)CC1 (stereo unspecified)	i	-1.8
CC(C(=O)O)c1ccc(CC2CCCC2=O)cc1 (stereo unspecified)	i	0.65&0.52
O=C(CCc1nc(CSc2nc3cc(Cl)ccc3o2)no1)Nc1ccccc1F	i	0.91
COc1ccc(CC(=O)Nc2ccc3nc(NC(=O)c4ccccc4)sc3c2)cc1	i	3
NS(=O)(=O)c1ccc(CCNCc2cccc(Oc3nnnn3-c3ccccc3)c2)cc1	i	-1.8
Cc1ccc(-c2cc(Nc3ccccc3Cl)nc(C)n2)cc1	i	0.91
CCOC(=O)c1c(C)[nH]c(C)c1S(=O)(=O)N1CCC(C(=O)Nc2ccc3c(c2)OCO3)CC1	i	-0.59
O=S(=O)(c1ccc(F)cc1)N1CCC2(CC1)NCCN=C2NCc1cccc(F)c1	i	-0.44
COc1ccc(-c2nc(Nc3ccc(F)cc3)c3ccccc3n2)cc1	i	2.5
Cc1sc(C)c(S(=O)(=O)N2CCCc3ccccc32)c1-c1cc(C(F)(F)F)on1	i	0.75
CC1=NS(=O)(=O)N(C)C=C1C(=O)OC(C)C	i	1.2
CCN(CC)c1nc2cc(C(=O)OC)ccc2c(=O)n1-c1ccc2c(c1)OCO2	i	-1.3
Cc1cc(NCC2CCCO2)n2nc(-c3ccccc3)c(C)c2n1 (stereo unspecified)	i	-0.4
Cc1cccc(NC(=O)C2CCN(S(=O)(=O)c3ccc4c(c3)C(C)(C)C(=O)N4C)CC2)c1C	i	0.27
COc1ccc(OCc2nc(-c3ccc4c(c3)Sc3ccccc3C(=O)N4C)no2)cc1	i	0.08
O=C(O)c1cc(N2CCN(c3ccc(F)cc3)CC2)nc2ccc(NS(=O)(=O)c3ccccc3)cc12	i	-0.69
O=C(Nc1ccc(N2CCCC2)c(C(=O)O)c1)c1ccc(Br)cc1	i	-1.9
CCCCn1c(=O)c2sccc2n2c(=O)n(CC(=O)NCc3cccc(OC)c3OC)nc12	i	-1.5
Cc1c(C(=O)N2CCCC2)c(S(=O)(=O)NC2CCN(Cc3ccccc3)CC2)c(C)n1C	i	0.01
CCOc1ccccc1NC(=O)Cc1csc(COc2cccc(C)c2)n1	i	0.49
COc1ccccc1NC(=O)C1c2ccccc2Oc2ccccc21	i	0.87
CCOc1ccc(-c2nc(CN3CCN(C(=O)Nc4cc(C)cc(C)c4)CC3)c(C)o2)cc1	i	0.75
COc1ccc(NCC2=NNC(=O)c3ccccc3O2)cc1	i	1.1
O=C(CN1C(=O)C2CCCCN2c2ccc(C(=O)N3CCOCC3)cc21)Nc1ccc(Cl)cc1 (stereo unspecified)	i	0.23
(more compounds)
SMILES	Anaer choline gr	Anaer choline gr early
O=C(NC1CCCC1)C1=Cc2cc(Br)ccc2OC=C1	i	-0.33
CCOC(=O)c1c(CN(CC)CC)n(-c2ccccc2)c2ccc(O)cc12	i	-1.6
O=C(O)c1ccc(N2CCN(Cc3ccc4c(c3)OCO4)CC2)c(NC(=O)c2ccc(Cl)cc2)c1	i	0.23
CC(C)c1cc(C2CCCN2Cc2cn[nH]c2-c2cccs2)no1 (stereo unspecified)	i	-0.95
Cc1ccc(NC(=O)c2ccccn2)c(C)c1	i	-2
Cc1nn2c(N3CCCC3)cc(C(C)(C)C)nc2c1-c1ccc(F)cc1	i	-0.06
O=C(NCc1ccc(Cl)cc1)c1ccc(-n2nc(OCc3ccc(Cl)cc3)ccc2=O)cc1	i	-0.72
COc1cc(-c2noc(-c3ccccc3)n2)ccc1OCC(=O)NC1CCCCC1	i	-0.21
CC1CCN(S(=O)(=O)c2ccc(-c3nc(C#N)c(N4CCOCC4)o3)cc2)CC1	i	0.1
CSCC[C@H](NC(=O)C(C)(C)C)C(=O)NCc1cscn1	i	0.31

Exported bar-delimited: entries from further up
Structure | Anaer choline gr | Anaer choline gr early
Cc1ccc(NC(=O)c2ccccn2)c(C)c1 | i | -2
Cc1nn2c(N3CCCC3)cc(C(C)(C)C)nc2c1-c1ccc(F)cc1 | i | -0.06

Structures above with an NH in an aromatic ring, in the order listed:
SMILES	Anaer choline gr	Anaer choline gr early
CC(C)NC(=O)CSc1nc2cc(-c3ccccc3)[nH]c2c(=O)n1Cc1ccccc1	i	0.4
C=Cc1ccc(CSc2nc3c(c(=O)[nH]2)CN(Cc2ccc(OC)cc2)CC3)cc1	i	0.06
CCCN1CC(CSC)C[C@@H]2c3cccc4[nH]cc(c34)C[C@H]21 (stereo partly specified)	i	0.27
CCC(=O)Nc1ccccc1-c1nnc(SC(CC)C(=O)Nc2ccccc2)[nH]c1=O (stereo unspecified)	i	-1.2
CCOc1ccccc1N(Cc1nc2nc(C)cc(=O)n2[nH]1)C(=O)C1CCCCC1	i	-0.13
CCOc1cc(C2c3c(-c4cc(C)ccc4O)n[nH]c3C(=O)N2CCOC)ccc1O (stereo unspecified)	i	-0.69
COc1ccc2[nH]cc(CCNC(=O)Nc3c(C)cccc3C)c2c1	i	0.68
CC(C)c1ccc(-c2cc(-c3nc(-c4ccc5c(c4)OCO5)no3)[nH]n2)cc1	i	0.61
Cc1nnc(-c2c(C)[nH]c(C)c2S(=O)(=O)N2CCC(C)CC2)o1	i	0.22
O=c1cc(CN2CCOCC2)nc2nc(NCc3ccccc3)[nH]n12	i	-0.3
CCOC(=O)C1CCN(C(=O)CCc2nc3sc4c(c3c(=O)[nH]2)CCC(C(C)(C)C)C4)CC1 (stereo unspecified)	i	-1.8
CCOC(=O)c1c(C)[nH]c(C)c1S(=O)(=O)N1CCC(C(=O)Nc2ccc3c(c2)OCO3)CC1	i	-0.59
CC(C)c1cc(C2CCCN2Cc2cn[nH]c2-c2cccs2)no1 (stereo unspecified)	i	-0.95

Source: PubChem BioAssay
